Bioassay records from PubChem.
Tg IFNy HTS: inhibitors of Toxoplasma gondii growth with IFN-gamma; Toxoplasma gondii growth in IFN-gamma-treated host cells; hits give low values; reference of the scale not given here; activity change, negative = inhibition, %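 (about 20 µM by stock and volumes)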; 69,000 tested, 3.8% active; AID 1259416;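 active = below -70%; inconclusive = fit judged invalid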;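 also: host cells are HeLa cells infected with Toxoplasma gondii; parasite growth read as luciferase light; one replicate is shown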
* = called active by the depositor; i = inactive; ? = inconclusive; & = joins results of further samples. A portion of the library. The share of hits here may be higher or lower than overall.

SMILES | Tg IFNy HTS
COc1ccc(OC)c(NC(=O)C2=C(C)C(=O)OC23CCN(C(C)=O)CC3)c1 | 214
Cc1n[nH]c(C)c1CCCNC(=O)C(C)(C)NC(=O)c1cccs1 | -1
Cc1cc(C)c2nc3s/c(=C/c4ccccc4)c(=O)n3c2c1 | 19
CCc1ccccc1-c1cccc(N2CCNCC2)n1 | -6
O=C(NC1CCC(n2cnnc2)CC1)c1ccc(C2CCCO2)s1 (stereo not drawn) | 36
CCCn1c(=O)n(Cc2ccc(F)cc2)c(=O)c2sccc21 | -35
CCNC(=O)N1CCC(NC(=O)c2ccc(OCC)o2)CC1 | -48
CC1CCN(CC[C@H]2CCCN2S(=O)(=O)c2cccc(O)c2)CC1 | 15&15
O=C(CSCc1ccccc1)OCc1nc2ccccc2s1 | 1
CCOCC1CN(Cc2ccc3ccccc3n2)Cc2cncn2C1 (stereo not drawn) | 200
Nc1nc(N)c(Cc2ccccc2)cc1Cc1ccccc1 | 160
COc1cncc(C(=O)Nc2cc(F)cc(F)c2)c1 | 48
CCn1ncnc1C(C)Nc1nc(CCN)nc2ccccc12 (stereo not drawn) | 3
CN(C)CC1(O)CCN(C(=O)C(C)(C)NC(=O)c2cccs2)C1 (stereo not drawn) | -31
CN(C)CCN1CCOCC2(CCCN(C(=O)c3nn(C)c4ccccc34)C2)C1 (stereo not drawn) | -53
CCc1cc2c(=O)c(-c3nc(C)cs3)c(CCCC(=O)O)oc2cc1O | 47
COc1nc(OC)nc(-c2c[nH]c3ccc(C)cc23)n1 | -87*
COc1ccccc1N1CCN(C2CCCN(C(=O)c3ccc(=O)[nH]c3)C2)CC1 (stereo not drawn) | 2
CC(c1cccs1)N(C)C(=O)CCCS(N)(=O)=O (stereo not drawn) | -4
COc1ccc(-c2nc(C)c(CCNC(=O)C(=O)Nc3cc(C)cc(C)c3)s2)cc1 | 3
COCCOC(=O)c1oc2c(c1C)C(=O)CC(c1ccc(OC)cc1OC)C2 (stereo not drawn) | -26
C[C@@H]1CN([C@@H](C)CO)C(=O)c2ccccc2-c2ccccc2CO[C@@H]1CN(C)Cc1cccc(C(=O)O)c1 | -35
C[C@H](CO)N1C[C@H](C)[C@H](CN(C)C(=O)NC2CCCC2)OCc2cnnn2CCCC1=O | 33
CC(C)N1C2COCC1CN(S(=O)(=O)c1cn(C)cn1)C2 | 4
COc1c(C)cnc(CSc2nc3ccccc3c(=O)[nH]2)c1C | -20
CN(Cc1cnccn1)C(=O)c1cccc(C#CC(C)(C)O)c1 | 6
COc1ccc(-c2nc(C)c(CCNS(=O)(=O)c3cc(OC)ccc3OC)s2)cc1 | 10
Cc1ccc(N(C(=O)Cc2cccs2)C(C(=O)NC2CCCCC2)c2ccncc2)cc1 (stereo not drawn) | -5
COc1ncccc1CN1CCOC2CC(COc3ccccn3)CC21 (stereo not drawn) | -1
COc1ccc(-c2nc(C)c(CCNC(=O)c3cccc(Cl)c3)s2)cc1 | i
COCc1nnc(NC(=O)C(C)Oc2ccc(Cl)cc2Cl)s1 (stereo not drawn) | 11
CCc1cc(C(=O)N2CCC(c3nc(C)cc(C)n3)C2)no1 (stereo not drawn) | -23
COc1ccc(-c2nc(NCCN3CCN(C)CC3)c3ccccc3n2)cc1 | -51
COc1cccc(-c2cnc(NCCCOc3ccccc3)nc2-c2nccn2C)c1 | -30
Cn1c2c(c(=O)n1C)CN(C(=O)c1ccco1)CCC2 | -33
CN(C)CCNC(=O)c1cc2n(n1)CCCN(C(=O)C1C=CCN1)C2 (stereo not drawn) | -52
O=C(NCCc1cc(Cl)c2c(c1)OCCO2)C1(c2cccc(F)c2)CCOCC1 | -6
CCNC(=O)[C@H]1[C@H](CO)[C@H]2Cn3c(ccc(/C=C/c4ccccc4)c3=O)[C@@H]1N2C(=O)c1ccncc1 | 4
CCN(C)C(=O)c1cc(-c2ccn(C3CCCC3)n2)n2ccccc12 | -8
CCN1c2ccc(C)cc2C(=O)NC12CCN(C(=O)c1ccc3c(c1)OCO3)CC2 | 30
Cc1ccc(F)cc1CN1CCCCC1CCN1CCOCC1 (stereo not drawn) | 20
COCc1cn(CC[C@H]2CC[C@H](NC(=O)Nc3c(C)noc3C)[C@@H](CO)O2)nn1 | 37
c1ccc(Oc2cccc(C3CCCN3)n2)cc1 (stereo not drawn) | -38
O=C(NCCS(=O)(=O)N1CCCC1)c1ccc(NC(=O)C2CCC2)cc1 | -1
Oc1ccc2ccccc2c1Cc1c(O)ccc2ccccc12 | -31
CC1CC(C)CN(C(=O)c2nc(-c3cccc(F)c3)n3c2CCCCC3)C1 (stereo not drawn) | -54
Cc1ccc2c(c1)C(=O)C1(O)CCN(c3ccccc3)C1=N2 (stereo not drawn) | 19
O=C(CN1CCC(N2CCCCC2)CC1)Nc1ccccc1N1CCOCC1 | 26
Cc1ccc(C)c(-c2[nH]ncc2CN2CCN(CC(C)C)C(CCO)C2)c1 (stereo not drawn) | -46
CCS(=O)(=O)N1CCC2(CC1)OC(=O)C(C)=C2C(=O)Nc1ccc(OC)cc1OC | 55
Following part
SMILES | Tg IFNy HTS
CCOC(=O)c1cccnc1-c1cccc(NC(C)=O)c1 | 13
COc1ccc(C2OC[C@H]3O[C@H](O)[C@H](NC(C)=O)[C@@H](O)[C@@H]3O2)cc1 (stereo partly drawn) | 1
COc1ccc(NC(=O)c2ccc(SC)cc2OC)cn1 | 142
CN1C(=O)c2cc(NC(=O)Cc3cccs3)ccc2OC[C@@H]2O[C@H](CC(=O)NCCc3ccncc3)CC[C@H]21 | 6
CN(Cc1cc(C(C)(C)C)n[nH]1)C(=O)c1cccc(C#CC(C)(C)O)c1 | 1
CCOc1ccc2oc(=O)cc(CN3CCN(Cc4nc(-c5ccc(Cl)cc5)oc4C)CC3)c2c1 | -9
Cc1cccc(C)c1NC(=O)c1cccc(CN(C)C(C)c2ccco2)c1 (stereo not drawn) | -5
CN1CCN(C)C2(CCN(C(=O)c3cc4c(Cl)cccc4[nH]3)CC2)C1 | -17
CC(C)OCCCNC(=O)c1nc(-c2ccc(Cl)cc2)n2c1CCCCC2 | -47
CC(C)N1C[C@H]2CN(C(=O)c3cnc[nH]3)C[C@H]2C1=O | i

16 compounds from above, ordered by length of the SMILES, descending:
SMILES | Tg IFNy HTS
CN1C(=O)c2cc(NC(=O)Cc3cccs3)ccc2OC[C@@H]2O[C@H](CC(=O)NCCc3ccncc3)CC[C@H]21 | 6
C[C@H](CO)N1C[C@H](C)[C@H](CN(C)C(=O)NC2CCCC2)OCc2cnnn2CCCC1=O | 33
COc1ccc(OC)c(NC(=O)C2=C(C)C(=O)OC23CCN(C(C)=O)CC3)c1 | 214
CN1CCN(C)C2(CCN(C(=O)c3cc4c(Cl)cccc4[nH]3)CC2)C1 | -17
CC1CC(C)CN(C(=O)c2nc(-c3cccc(F)c3)n3c2CCCCC3)C1 (stereo not drawn) | -54
COCCOC(=O)c1oc2c(c1C)C(=O)CC(c1ccc(OC)cc1OC)C2 (stereo not drawn) | -26
CCc1cc2c(=O)c(-c3nc(C)cs3)c(CCCC(=O)O)oc2cc1O | 47
CC(C)OCCCNC(=O)c1nc(-c2ccc(Cl)cc2)n2c1CCCCC2 | -47
Cc1cc(C)c2nc3s/c(=C/c4ccccc4)c(=O)n3c2c1 | 19
CCc1cc(C(=O)N2CCC(c3nc(C)cc(C)n3)C2)no1 (stereo not drawn) | -23
CCCn1c(=O)n(Cc2ccc(F)cc2)c(=O)c2sccc21 | -35
COCc1nnc(NC(=O)C(C)Oc2ccc(Cl)cc2Cl)s1 (stereo not drawn) | 11
COc1ncccc1CN1CCOC2CC(COc3ccccn3)CC21 (stereo not drawn) | -1
CCn1ncnc1C(C)Nc1nc(CCN)nc2ccccc12 (stereo not drawn) | 3
COc1cncc(C(=O)Nc2cc(F)cc(F)c2)c1 | 48
O=C(CSCc1ccccc1)OCc1nc2ccccc2s1 | 1

Next section:
SMILES | Tg IFNy HTS
COc1ccc([C@@H]2C/C=C\C[C@@H](c3ccc4c(c3)OCO4)NC(=O)[C@H](c3ccccc3)CC(=O)N2)c(OC)c1 | 40
CCc1ccc(S(=O)(=O)N2CCC(c3nc(C(=O)N4CCCC4)c(C)o3)CC2)cc1 | -28
Cc1cc(SCc2[nH]nc3oc(=O)cc(C)c23)c(Cl)cc1Cl | -9
CC(NC(=O)c1cccs1)C12CC3CC(CC(C3)C1)C2 (stereo not drawn) | -19
CNC[C@@H]1Oc2ncc(-c3cncnc3)cc2C(=O)N([C@H](C)CO)C[C@@H]1C | 140
c1ccc(COCC2CC3(CCN(Cc4ccoc4)CC3)CO2)nc1 (stereo not drawn) | 8
CN(C)[C@@H]1CCN(C2CCOCC2)[C@H]1Cc1cccnc1 | 6
Cc1nc(CCNc2nc(-c3cccnc3)nc3c2CCNC3)sc1C | 136
CO[C@H]1CN(C)C(=O)c2cccc(C#N)c2OCC[C@@H]2CC[C@@H](OC)[C@@H](CN(C)C(=O)[C@H]1C)O2 | -27
O=C1NCCCOCc2cn(nn2)CC[C@@H]1Cc1ccc(-c2ccccc2)cc1 | -21
CCOc1ccccc1-c1nc(Cn2ccn3nc(-c4ccc(CC)cc4)cc3c2=O)c(C)o1 | i
CN(C)CCOC(c1ccc(Cl)cc1)c1ccccn1 (stereo not drawn) | 10&16
C[C@H]1CN([C@@H](C)CO)C(=O)CCCn2cc(nn2)CO[C@@H]1CN(C)Cc1ccccc1 | 39
CN(C)C[C@@H]1CCC[C@@H]2CN(c3ncccn3)C[C@H]21 | -2
CCOC(=O)c1cc(C)nc2c1c(=O)n(Cc1nc(-c3ccc(OC(C)C)cc3)oc1C)c(=O)n2C | -81*
O=C(Nc1ccc2c(c1)OCCO2)c1nc(Nc2ccccc2)c2ccccc2n1 | -2
O=C1CCCN1[C@H]1CN(C(=O)Cc2ccc(F)cc2)[C@H]2CCCO[C@@H]12 | 5
CC(C)CCN1C2(CCN(C(=O)c3ccno3)C2)c2ccccc2S1(=O)=O (stereo not drawn) | 10
COc1cccc(N(Cc2nc(-c3cccc(C)c3)oc2C)S(=O)(=O)c2ccccc2)c1 | -47
C=CC[C@@H]1CC=C[C@@H](C)N1C(=O)c1cc(OC)nc(OC)n1 | 0
Cc1cccc(C(=O)N2CCCn3nnc(Cn4cccn4)c3C2)c1 | 6
CCOC(=O)C1CCCn2c1nc1sc3c(c1c2=O)CCCC3 (stereo not drawn) | 7
O=C(c1ccc2c(c1)OCO2)N1C[C@@H]2[C@H](c3ccccc31)[C@@H](CO)N2Cc1cccnc1 | -5
CCOc1cc2c(cc1-c1nccn1Cc1cnn(C)c1C)CCC2 | -36
COc1ccc(S(=O)(=O)N2CCN(C)c3ncccc3C2)cc1 | -2
Cc1nc(Cc2ccccc2)sc1C(=O)Nc1ccc2c(c1)NC(=O)C(C)O2 (stereo not drawn) | -12
CN1CCN(C(=O)Cc2ccsc2)Cc2cccnc21 | -30
O=C(O)c1ccc(-c2ccc3cc(O)c(C45CC6CC(CC(C6)C4)C5)cc3c2)cc1 | -43
O=C(CSc1nc2ccccc2s1)NCc1ccccc1 | 10
Cc1cc(=O)n(CC(=O)N2CCC(CCN3CCOCC3)CC2)c2ccccc12 | 1
Cc1ccc(-c2nc(CSc3nc4c(c(=O)[nH]3)CN(Cc3ccc(Cl)cc3)CC4)c(C)o2)cc1 | -22
O=C(Nc1ccccc1F)N1C[C@@H]2[C@H](c3ccccc31)[C@@H](CO)N2C(=O)Cc1cccnc1 | -25
COc1ccc(F)c(-c2cc(C)cnc2-n2cnnc2)c1 | -12
C[C@H]1COc2c(C3(N)CC3)c(F)cc3c(=O)c(C(=O)O)cn1c23 | 17
O=C(Cn1c(=O)cc(C(=O)N2CCCC2)c2ccccc21)Nc1cccc(Cl)c1 | -7
CCOC(=O)CC1COCCN1C(=O)c1cc(-c2ccccc2)nn1C (stereo not drawn) | 46
Cc1c(Cl)cccc1NC(=O)CN1C(=O)CCc2cc(S(=O)(=O)N3CCCCC3C)ccc21 (stereo not drawn) | -70
COc1ccc(-c2nc(NCCc3cc(OC)ccc3OC)c3ccccc3n2)cc1 | -41
CC(c1cncs1)N(C)Cc1cnc2c(-c3ccccc3)cnn2c1 (stereo not drawn) | 239
COc1cc(COC2CN(C(=O)c3ccc(C(C)=O)s3)CC(=O)N(C(C)C)C2)cc(OC)c1 (stereo not drawn) | -13
O=S(=O)(NC[C@H]1[C@@H](c2ccccc2)[C@H](CO)N1CC1CC1)c1ccccc1 | 6
O=C(C[C@@H]1CC[C@H]2NC[C@H](O)COC[C@@H]2O1)Nc1nccs1 | -4
Cc1c(Cl)cccc1S(=O)(=O)N1CCc2nc(-c3ccccc3)sc2C1 | -83*
CC1CN(C(=O)CC(c2ccccc2)c2ccccc2)CC(C)O1 (stereo not drawn) | ?
Cc1nc(CNC(=O)C(=O)c2cccs2)cs1 | 4
C[C@H](CO)N1C[C@H](C)[C@@H](CN(C)C(=O)c2cc(Cl)cc(Cl)c2)OCc2ccccc2-c2ccccc2C1=O | -51
CNC(=O)CCN(C)C1CCN(c2cccc(C)c2C)CC1 | -16
O=c1[nH]cc(COCC(F)(F)C(F)F)c(=O)[nH]1 | -4
COc1ccc(CCNC(=O)CN2CCCC3(CNC(=O)O3)C2)cc1 (stereo not drawn) | 0
COc1ccc2cc(C3CN(Cc4cc5n(n4)CCNC5)CCO3)ccc2c1 (stereo not drawn) | ?
Following part
SMILES | Tg IFNy HTS
CN1c2ccc(Br)cc2[C@H]2[C@H](CCN2C(=O)Cc2ccccc2)[C@H]1CO | 16
C[C@@H]1CN([C@@H](C)CO)S(=O)(=O)c2ccc(C#Cc3cccc(F)c3)cc2O[C@H]1CN(C)S(=O)(=O)c1cn(C)cn1 | -31
CN(C)C1(CNc2nccc(C3CCCC3)n2)CCOCC1 | -1
OC(CN1CCC(NC2CCCCC2O)CC1)Cn1ccc2ccccc21 (stereo not drawn) | -63
CC1CCN(S(=O)(=O)c2ccc3c(c2)CCC(=O)N3CC(=O)NC(C)C)CC1 | 33
O=C(CN1C(=O)CCc2cc(S(=O)(=O)N3CCCC3)ccc21)NCc1cccs1 | 16
Cc1cc(C)c2c(=O)n(Cc3nc(-c4ccccc4Cl)oc3C)c(=O)n(Cc3ccco3)c2n1 | -4
C[C@H](c1cccc2ccccc12)N(C)C(=O)c1ccc(OCC(N)=O)cc1 | 6
Cc1ccc2[nH]c3c(c2c1)CCOc1ccccc1-3 | 21
